Assay outcomes as filed in PubChem.
FGF22 binding: FGF22 (human) thermal shift binding; Q9HCT0; recombinant FGF22 thermal shift, SYPRO orange fluorescence; percent of sucrose octasulfate shift, DMSO zero; calls only at 9.99 µM; hit rate 1.5% among 340,000; AID 651658;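 active = melting point raised past a set limit in the mean and every replicate; inconclusive = no clear call; three in four hits are not shown here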
Target sequence (Q9HCT0 whole entry, looked up): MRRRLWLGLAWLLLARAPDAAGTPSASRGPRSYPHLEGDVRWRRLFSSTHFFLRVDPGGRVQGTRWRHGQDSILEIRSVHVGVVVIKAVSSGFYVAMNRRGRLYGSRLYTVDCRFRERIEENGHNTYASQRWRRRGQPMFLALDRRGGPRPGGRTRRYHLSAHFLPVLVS
ALR H2O2 inh: blocks human ALR sulfhydryl oxidase activity; purified ALR, DTT oxidation, H2O2 HRP-luminol luminescence; hit rate 3.8% among 290,000; inhibition, % (test concentration not listed); P55789; AID 485317;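 active = mean and each replicate at 75% or more; inconclusive = only one of the two met; inactive = neither met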;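 note: stock transfer was 7.5 nL into about 7.5 µL; 0% = neutral wells and 100% = wells with inactivated enzyme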
Target sequence (P55789 whole entry, looked up): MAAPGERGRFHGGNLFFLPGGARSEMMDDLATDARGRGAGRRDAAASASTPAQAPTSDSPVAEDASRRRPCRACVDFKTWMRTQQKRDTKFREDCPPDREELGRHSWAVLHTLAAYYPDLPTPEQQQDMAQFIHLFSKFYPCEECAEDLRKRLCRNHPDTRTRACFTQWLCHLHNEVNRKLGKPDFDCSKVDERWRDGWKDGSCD
Ecoli rRNA inh: selective bacterial rRNA inhibition in E. coli; E. coli WT GFP vs humanized-ribosome RFP mutants, fluorescence, 24 h; hits give low values; DMSO median 0, no signal -100; hit rate 1.6% among 350,000; GFP signal change (wild-type ribosome), % (test concentration not listed);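 active = significant combined selectivity score with lowered wild-type GFP, culture density cut under 30%, mutant RFP and density less affected; inactive = any of these conditions unmet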; note: one replicate is shown; some compounds called inactive have numbers as strong as hits
Calb FLC: affects C. albicans growth with fluconazole | hit rate 0.57% among 300,000 | growth inhibition, % (concentration not given with the values) | C. albicans CaCi-2 (fluconazole-resistant clinical isolate) + fluconazole, Alamar Blue growth, 48 h;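 active = most replicates above 75%; inconclusive = exactly half above 75%; inactive = most below 75%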;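 note: all wells also contain fluconazole at 8 µg/ml as a sub-toxic cotreatment; 0% = median of DMSO wells and 100% = median of geldanamycin control wells; wells of about 8 µL received 7.5 nL stock; the first replicate is given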
Beta cell apopt: blocks beta cell apoptosis; hit rate 0.8% among 300,000; protection from apoptosis, % (no concentration beside the values); INS-1E cytokine-induced death, ATP luminescence, 48 h; percent of positive-control rescue, neutral wells zero; AID 435005;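 active = all replicates at 75% or more, or half of them and the mean; inconclusive = half reach 75% but not the mean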;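 note: 0% = cytokine-treated negative control wells and 100% = positive control rescue; higher means more ATP so stronger rescue from cytokine killing; wells of about 40 µL received 100 nL stock; the first replicate is given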
MLL AF4-AF9 inh: blocks AF4 peptide binding to human AF9; hit rate 0.47% among 350,000; P42568; AlphaScreen, biotin-AF4 peptide binding to FLAG-AF9; inhibition, % at 10 µM;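 active = every replicate reaching a set inhibition limit, whatever the replicate mean, cut at about 25% in these data; inconclusive = mean inhibition reaches that limit but some replicates miss it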;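 note: 0% = plate neutral control median and 100% = total signal loss; the record names both 10 and 1 µM as test concentration; the first replicate is given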
Target sequence (P42568 whole entry, looked up): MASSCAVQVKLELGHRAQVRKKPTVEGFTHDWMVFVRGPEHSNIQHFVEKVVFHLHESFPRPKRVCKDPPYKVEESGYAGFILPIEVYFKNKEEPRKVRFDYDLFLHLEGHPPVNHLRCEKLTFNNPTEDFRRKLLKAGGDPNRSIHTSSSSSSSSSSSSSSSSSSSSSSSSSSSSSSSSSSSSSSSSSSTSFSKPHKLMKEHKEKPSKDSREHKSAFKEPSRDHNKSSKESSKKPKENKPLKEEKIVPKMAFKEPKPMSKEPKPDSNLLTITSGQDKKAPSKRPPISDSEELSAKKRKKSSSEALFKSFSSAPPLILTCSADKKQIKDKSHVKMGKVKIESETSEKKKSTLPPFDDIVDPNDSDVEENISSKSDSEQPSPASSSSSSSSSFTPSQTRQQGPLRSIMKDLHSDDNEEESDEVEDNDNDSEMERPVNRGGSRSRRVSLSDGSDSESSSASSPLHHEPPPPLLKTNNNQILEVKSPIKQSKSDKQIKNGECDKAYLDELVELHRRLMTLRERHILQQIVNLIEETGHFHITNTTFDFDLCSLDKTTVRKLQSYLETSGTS
RanGTP-Imp inh: disruptors of Ran-importin-beta complex formation – biochemical, FRET, CFP-Ran, YFP-importin-beta, homogeneous, primary screen; cell-free CFP-Ran/YFP-importin-beta FRET ratio; inhibition, % (test concentration not listed); hit rate 1.1% among 300,000;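 active = most replicates above 15%; inconclusive = exactly half above 15%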;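 note: 0% = DMSO wells and 100% = Ran loaded with GDP instead of GTP; wells of about 40 µL received 100 nL stock; the first replicate is given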
T cruzi repl: T. cruzi replication inhibition. T. cruzi beta-gal in NIH3T3, luminescence, 90 h. inhibition, % (test concentration not listed). hit rate 1.4% among 300,000. AID 1885;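 active = mean inhibition across valid replicates above about 55%, limit read from the data; inconclusive = mean below that limit but half or more replicates reach it; inactive = mean below it, under half of replicates reach it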;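 note: signal also drops with host cell toxicity which is not excluded here; 0% = plate median of DMSO wells and 100% = zero luminescence signal; higher percent means less beta-gal luminescence so fewer parasites; stock transfer was 50 nL into about 50 µL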
Ecoli rRNA inh OD600: also measured in Ecoli rRNA inh; calls as there; OD600 change, %; measured here: OD600 growth;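 optical density of the mix in the first replicate; 0 = DMSO median and -100 = no signal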
Ecoli rRNA inh RFP: second read-out of Ecoli rRNA inh, no call of its own (marks repeat the call); RFP signal change, %; measured here: RFP humanized mutant strains;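 first replicate; 0 = DMSO median and -100 = no signal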
Starred values were filed as active, the others as inactive; i = inactive; ? = inconclusive; / = no result given. These rows are one share of the data; the hit share may differ from the screen's.

SMILES	FGF22 binding	ALR H2O2 inh	Ecoli rRNA inh	Ecoli rRNA inh OD600	Ecoli rRNA inh RFP	Calb FLC	Beta cell apopt	MLL AF4-AF9 inh	RanGTP-Imp inh	T cruzi repl
Cc1ccc(S(=O)(=O)NCC(c2cccnc2)N2CCN(Cc3ccccc3)CC2)cc1 (stereo not drawn)	i	-5	1	2	-1.8	0	-2	13	-0.4	57*
COc1ccc(C2=NOC3(CC(=O)N(c4ccc(C)cc4)C3=O)C2)cc1 (stereo not drawn)	/	0	/	/	/	15	0	/	-0.4	-13
COc1cccc(C(=O)Nc2ccc3nc4n(c(=O)c3c2)CCCC4)c1	i	-4	-4	-14	-1.5	2	1	-1.7	-1.3	-13
CCN(CC)S(=O)(=O)c1ccc(C(=O)NCc2n[nH]c(=S)n2-c2ccc(Cl)c(Cl)c2)cc1	i	33	-12	-10	1.0	14	7	3.2	-1.8	9
CCOc1ccc(OCC)c(S(=O)(=O)N2CCCCC2)c1	/	2	/	/	/	1	-3	/	2.3	-2
Oc1cccc(NC(=S)Nc2cccnc2)c1	/	16	/	/	/	-1	-4	/	0.3	-6
CS(=O)(=O)Nc1ccc(S(=O)(=O)NC2CCCCC2)cc1	i	-6	12	8	0.8	7	/	-0.4	-1.4	-9
COc1ccc(-c2cn(-c3ccc(C)cc3C)c(=S)[nH]2)cc1OC	i	17	8	-4	0.5	/	1	6.9	1.7	1
C=CCOc1c(Br)cc(CNc2ccc(NC(=O)C(C)C)c(OC)c2)cc1OCC	i	-23	1	6	6.3	5	-4	-0.8	6.7	10
CCCSc1nc2cc(OC)c(OC)cc2c(=N)n1CCCN1CCOCC1	i	-6	-15	-9	-0.2	0	/	2.3	0.6	22
COc1ccc(NC(=O)CC2C(=O)N(c3cccc(C)c3)C(=O)N2C2CCCCC2)cc1 (stereo not drawn)	/	-13	/	/	/	?	16	/	-0.2	13
CCOC(=O)C1CCN(C(c2cc3ccc(C)c(C)c3[nH]c2=O)c2nnnn2C2CCCCC2)CC1 (stereo not drawn)	/	4	/	/	/	5	-6	/	3.5	1
CC(SCc1cn2cc(Cl)ccc2n1)C(=O)O (stereo not drawn)	/	-26	/	/	/	-7	1	/	1.8	-4
Cc1c(NC(=O)c2noc(C(C)C)c2[N+](=O)[O-])c(=O)n(-c2ccccc2)n1C	i	-11	1	5	-0.6	-1	/	-0.5	0.8	5
COc1ccccc1C(c1nnnn1C(C)(C)C)N1CCN(Cc2ccccc2)CC1 (stereo not drawn)	/	-1	/	/	/	11	2	/	?	-4
CCc1noc(C)c1C(=O)OCC(=O)NCc1ccccc1	i	-14	11	10	1.3	/	-1	-2.4	/	/
O=C(Cc1ccccc1)NN1C(=O)/C(=C/c2ccccc2C(=O)O)SC1=S	i	11	-1	-5	-2.2	19	-4	0.2	-1.0	-1
CCc1ccc(N2CC(C(=O)Nc3ccc(S(=O)(=O)N4CCCCC4)cc3)CC2=O)cc1 (stereo not drawn)	i	1	9	8	-1.8	-20	-7	-0.6	3.2	9
CC(=O)N/C(=N/c1nc(C)cc(C)n1)Nc1ccc(NC(C)=O)cc1	/	-2	/	/	/	-4	2	/	0.3	-2
COCCSc1nnc(NC(=O)CSc2ccccc2)s1	/	-14	/	/	/	63	-9	/	2.6	1
C[C@@H](NCCc1ccc(O)cc1)[C@@H](O)c1ccc(O)cc1	i	19	1	8	-4.2	/	-2	2.5	-2.9	-22
CCCNc1c(F)c(F)c2c(C)c3ccccc3nc2c1F	/	3	/	/	/	-4	-3	/	-8.6	8
COc1cc(OC)cc(C(=O)NCCSC2CCCCC2)c1	i	-3	-30	-26	-3.0	-27	-2	0.4	-2.7	9
CCOC(=O)c1sc2nc(CN3CCN(c4cccc(C(F)(F)F)c4)CC3)[nH]c(=O)c2c1C	i	12	-3	-3	-1.0	-3	-6	-2.4	-5.4	-2
O=C(OCc1cnc(Cl)s1)c1cccs1	i	-2	4	-3	0.4	-17	-5	0.6	2.3	8
O=C(Nc1ccc(S(=O)(=O)N2CCOCC2)cc1)c1cc(-c2cc(Cl)ccc2O)n[nH]1	i	/	-38*	-25*	-14*	-1	46	0.3	3.8	-1
Cn1nc(C(=O)N2CCN(c3ccc([N+](=O)[O-])cc3)CC2)c2c1-c1ccccc1S(=O)(=O)C2	/	-14	/	/	/	-20	0	/	0.3	-4
CCC(=O)Nc1nnc(S(=O)(=O)N(C)c2ccccc2)s1	i	1	18	14	1.6	-11	1	-3.9	2.2	-5
COc1ccccc1Nc1nc(N)nc(CCl)n1	i	/	9	-7	-0.4	-16	-12	-1.4	-0.5	-1
COc1cc(C(C)=O)ccc1COc1ccc(C(=O)OCC(=O)NC(C)(C)C)cc1OC	i	2	-6	-4	0.7	4	-1	-0.8	?	-3
CCOC(=O)C1CCCN(S(=O)(=O)c2cc(OCC(N)=O)c(C)cc2Cl)C1 (stereo not drawn)	/	/	/	/	/	0	0	/	3.6	-5
O=C(/C=C/c1ccc(-c2cccc([N+](=O)[O-])c2)o1)N1CCOCC1	i	-7	14	12	6.5	12	-6	0.6	-1.4	5
CC(C)(C)OC(=O)N[C@@H](Cc1ccccc1)c1nnc(SCC(N)=O)o1	i	/	7	2	1.5	11	-2	-5.2	7.3	20
CCCn1c(CC)nc([N+](=O)[O-])c1Sc1ccc(C)cc1	/	12	/	/	/	-3	-16	/	-3.3	16
Cn1nnnc1SCc1nnc(-c2ccc(Cl)cc2)o1	/	-2	/	/	/	-10	0	/	-5.0	-11
Cc1ccc(C2CC2C(=O)NNC(=S)Nc2cccc(C)c2)cc1 (stereo not drawn)	/	8	/	/	/	?	3	/	0.9	6
O=C1CCCCCN1CSc1nc2ccccc2s1	/	-2	/	/	/	22	2	/	-4.3	2
C=CCn1c(SCC(=O)N2CCCC2)nc2c([nH]c3ccccc32)c1=O	i	-13	5	9	-1.0	4	9	-1.4	1.3	-10
CCN(CC)S(=O)(=O)c1ccc2[nH]c(=O)cc(C(=O)Nc3ccc(C)cc3)c2c1	i	7	15	15	-0.7	-9	-3	0.2	1.0	-10
CCOc1ccc(CNC(=O)CCc2cn(Cc3ccccc3)c3ccccc23)cc1	i	/	5	-3	-8.6	1	/	-1.1	-1.6	16

Nothing new here: two of the compounds above.
SMILES	FGF22 binding	ALR H2O2 inh	Ecoli rRNA inh	Ecoli rRNA inh OD600	Ecoli rRNA inh RFP	Calb FLC	Beta cell apopt	MLL AF4-AF9 inh	RanGTP-Imp inh	T cruzi repl
CCN(CC)S(=O)(=O)c1ccc2[nH]c(=O)cc(C(=O)Nc3ccc(C)cc3)c2c1	i	7	15	15	-0.7	-9	-3	0.2	1.0	-10
CCOc1ccc(CNC(=O)CCc2cn(Cc3ccccc3)c3ccccc23)cc1	i	/	5	-3	-8.6	1	/	-1.1	-1.6	16

(further entries)
SMILES	FGF22 binding	ALR H2O2 inh	Ecoli rRNA inh	Ecoli rRNA inh OD600	Ecoli rRNA inh RFP	Calb FLC	Beta cell apopt	MLL AF4-AF9 inh	RanGTP-Imp inh	T cruzi repl
CC(C)(C)C(C(=O)Oc1ccccc1)c1ccccc1 (stereo not drawn)	i	8	-1	-1	-4.9	/	3	7.5	/	/
CC(C)c1ccc(NC(=O)C2CCN(c3ncnc4c3nc3n4CCCCC3)CC2)cc1	i	1	0	9	-1.8	-9	16	-1.6	6.3	11
O=C(Cc1ccc(Cl)cc1)NCC(=O)N1CCN(c2ccccc2)CC1	i	29	-5	-4	2.0	7	7	0.6	2.1	3
c1csc(-c2ccnc3ncnn23)c1	/	-1	/	/	/	-7	-2	/	1.5	0
COc1ccc(CCNC(=O)CSc2nnc3ccc(-c4cccnc4)nn23)cc1	i	-5	-2	0	5.7	-3	6	12	0.0	-8
CC1CN(Cc2nc3c(c(=O)n(C)c(=O)n3C)n2CC(O)CO)CC(C)O1 (stereo not drawn)	/	-11	/	/	/	?	-4	/	3.0	1
CCOC(=O)/C(C#N)=C/c1c(N2CCN(c3ccccc3)CC2)nc2ccccn2c1=O	i	-12	2	-2	4.3	16	1	19	9.2	13
Cc1ccc(S(=O)(=O)CCC(=O)Nc2nc(C(C)(C)C)cs2)cc1	i	-1	-3	-32	8.3	-1	0	1.4	1.2	-38
COc1ccc(/C=C2\SC(=O)N(CC(=O)NC3C=CS(=O)(=O)C3)C2=O)cc1 (stereo not drawn)	i	-4	-2	8	1.9	-2	-10	0.9	2.0	-12
C/C(=N\NC(=O)c1nnn(-c2nonc2N)c1-c1ccc2c(c1)OCO2)c1ccc(C)cc1	i	3	-1	-1	1.5	16	14	-18	9.5	0
Cc1ccc(NC(=O)CN(C)C(=O)c2cc(-c3ccco3)nc3ccccc23)cc1	i	1	2	11	4.4	3	1	-1.4	-7.4	-5
Cc1[nH]c(C)c(S(=O)(=O)NCc2ccc(N(C)C)cc2)c1C(=O)N1CCCC1	i	98*	19	14	1.4	-5	1	-1.0	-4.2	-4
CCN(CC(=O)Nc1ccc(OC)c(OC)c1)S(=O)(=O)c1ccc(C)cc1	/	-19	/	/	/	2	-6	/	1.5	-5
O=C(CN1CCN(c2ccccc2O)CC1)Nc1cc([N+](=O)[O-])ccc1Cl	i	-12	3	-2	1.6	-4	-5	1.7	-2.4	1
CCOC(=O)Cc1csc(-n2sc3ccccc3c2=O)n1	i	5	3	4	-4.2	20	-20	-1.6	9.2	9

Retrieved by compound from the list above, five records:
SMILES	FGF22 binding	ALR H2O2 inh	Ecoli rRNA inh	Ecoli rRNA inh OD600	Ecoli rRNA inh RFP	Calb FLC	Beta cell apopt	MLL AF4-AF9 inh	RanGTP-Imp inh	T cruzi repl
COc1ccc(/C=C2\SC(=O)N(CC(=O)NC3C=CS(=O)(=O)C3)C2=O)cc1 (stereo not drawn)	i	-4	-2	8	1.9	-2	-10	0.9	2.0	-12
CCOC(=O)/C(C#N)=C/c1c(N2CCN(c3ccccc3)CC2)nc2ccccn2c1=O	i	-12	2	-2	4.3	16	1	19	9.2	13
Cc1ccc(S(=O)(=O)CCC(=O)Nc2nc(C(C)(C)C)cs2)cc1	i	-1	-3	-32	8.3	-1	0	1.4	1.2	-38
CCOC(=O)Cc1csc(-n2sc3ccccc3c2=O)n1	i	5	3	4	-4.2	20	-20	-1.6	9.2	9
Cc1[nH]c(C)c(S(=O)(=O)NCc2ccc(N(C)C)cc2)c1C(=O)N1CCCC1	i	98*	19	14	1.4	-5	1	-1.0	-4.2	-4
